Screens as filed in PubChem.
FPR binding – FPR binders displacing fluorescent formyl peptide, primary screen, U937-FPR cells, fMLFK-FITC, flow cytometry (AID 362); actives 1% (n = 4,300); U937-FPR cells, fMLFK-FITC displacement, flow cytometry; hits give high values; test concentration not given here; most inactive calls were filed without a number and no value below 0 was filed; inhibition, %;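 active = inhibition of labelled peptide binding to the formyl peptide receptor of at least 65%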;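 also: plate controls were buffer control wells for no effect and unlabeled fMLFF blocking peptide for full effect; higher means less cell fluorescence so more probe displaced; part of the set was picked by virtual screening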
Starred values were filed as active, the others as inactive; i = inactive. A portion of the library (hit frequency here may not be typical).

CCOc1ccc(NC(=O)CSc2nc3ccsc3c(=O)n2CC2CCC(C(=O)O)CC2)cc1 (configuration not stated)
- FPR binding: i
O=C(Oc1cc2oc(=O)c3c(c2cc1Cl)CCC3)C1CCCCC1
- FPR binding: i
Cc1ccc(C2c3sc(=O)[nH]c3SC3C4CC(C5C(=O)N(c6ccc(C)cc6)C(=O)C45)C23)cc1 (configuration not stated)
- FPR binding: 5
CCc1ccc(Oc2c(C(F)(F)F)oc3c(CN4CCCCC4)c(O)ccc3c2=O)cc1
- FPR binding: 22
CC1=C(C)C/S(=N\S(=O)(=O)c2ccccc2)N(S(=O)(=O)c2ccccc2)C1 (configuration not stated)
- FPR binding: 103*
CCOc1ccccc1C1C(C(=O)OC(C)C)=C(C)NC2=C1C(=O)C(C(=O)OC)C(C)C2 (configuration not stated)
- FPR binding: 9
O=C1C2C3C=CC(C3)C2C(=O)N1c1ccc(NC(Cc2ccccc2)c2ccccc2)c([N+](=O)[O-])c1 (configuration not stated)
- FPR binding: 18
COC(=O)C1C(=O)C2=C(CC1C)NC(C)=C(C(=O)OC1CCCCC1)C2c1ccc(F)cc1 (configuration not stated)
- FPR binding: i
Cc1ccc(S(=O)(=O)NCC2CCC(C(=O)N3CCC(Cc4ccccc4)CC3)CC2)cc1 (configuration not stated)
- FPR binding: i
O=C1Nc2c(c(=O)[nH]c(=O)n2-c2ccc(Cl)cc2)C1(NS(=O)(=O)c1ccccc1)C(F)(F)F (configuration not stated)
- FPR binding: 16

O=C(Oc1cccc(N2C(=O)C3C4CCC(C4)C3C2=O)c1)c1ccccc1 (configuration not stated)
- FPR binding: i
CCCOC(=O)C1=C(C)NC2=C(C(=O)C(C(=O)OC)C(C)C2)C1c1ccc(Cl)c([N+](=O)[O-])c1 (configuration not stated)
- FPR binding: 2
O=c1oc2c3c(ccc2c2c1CCC2)OCN(c1cccc(C(F)(F)F)c1)C3
- FPR binding: 4
Cn1c2ccccc2c2c(C(=O)N3CCN(c4ccc(F)cc4)CC3)cn(C3CCCC3)c(=O)c21
- FPR binding: i
CCOC(=O)C1CCC(CN(Cc2ccccc2C)S(=O)(=O)c2ccc([N+](=O)[O-])cc2)CC1 (configuration not stated)
- FPR binding: i
CC1CCCCN1S(=O)(=O)c1cccc2nsnc12 (configuration not stated)
- FPR binding: i
Cc1ccc(S(=O)(=O)Nc2ccc3c(c2)c2c(n3S(=O)(=O)c3ccc(C)cc3)CC(C)(C)CC2=O)cc1
- FPR binding: 22
CCOc1ccc(NC(=O)Cn2cc(S(=O)(=O)N3CCC(C)CC3)c3ccccc3c2=O)cc1
- FPR binding: i
CCOC(=O)C1(C(F)(F)F)N=C(N2CCOCC2)OC(N2CCOCC2)=N1
- FPR binding: 13
O=C(NCCCSC1CCCCC1)C1CCC(CNS(=O)(=O)c2ccccc2)CC1 (configuration not stated)
- FPR binding: i

CCOC(=O)C1CCC(CN(Cc2ccc(OC)cc2)S(=O)(=O)c2ccc3c(c2)OCCO3)CC1 (configuration not stated)
- FPR binding: i
CCOc1ccc2c(=O)c(Oc3ccc(OC)cc3)c(C(F)(F)F)oc2c1
- FPR binding: 15
CCCCOC(=O)c1cccc(N2C(=O)C3C4CCC(C4)C3C2=O)c1 (configuration not stated)
- FPR binding: i
CCOC(=O)C1=C(C)NC2=C(C(=O)C(C(=O)OC)C(C)C2)C1c1ccccc1[N+](=O)[O-] (configuration not stated)
- FPR binding: 4
CCOCCOC(=O)C1=C(C)NC2=C(C(=O)C(C(=O)OC)C(C)C2)C1c1ccc(C)cc1 (configuration not stated)
- FPR binding: 32
CCCCCCCC1C(C#N)=C(N)SC(N)=C1C#N
- FPR binding: i
COc1ccc(C2C(C(=O)OC3CCCC3)=C(C)NC3=C2C(=O)CCC3)c(OC)c1OC (configuration not stated)
- FPR binding: i
CC(C)Cn1cc(C(=O)N2CCN(C3CCCCC3)CC2)c2c3ccccc3n(C)c2c1=O
- FPR binding: 5
CCCCCc1c(C)c(C#N)c2nc3ccccc3n2c1N1CCN(CCO)CC1
- FPR binding: 4
CCOC(=O)c1c(NC(=O)CN2CCCCC2)sc2c1CCCC2O (configuration not stated)
- FPR binding: 10

N#CC1=C(N)OC2=C(C(=O)CCC2)C1C1CC=CCC1 (configuration not stated)
- FPR binding: i
CC1CCC(C(=O)NC(C(=O)Nc2ccccn2)C(C)C)CC1 (configuration not stated)
- FPR binding: i
CCCN(CCC)Cc1c(O)ccc2c(=O)c(Oc3cc(C)cc(C)c3)c(C(F)(F)F)oc12
- FPR binding: 18
CCOc1ccc(NC(=O)C2CCC(CNC(=O)c3ccc(=O)[nH]c3)CC2)cc1 (configuration not stated)
- FPR binding: i
CCCCCCCOC(=O)c1c(C)oc2ccc(NS(=O)(=O)c3ccc4c5c(cccc35)C(=O)N4)cc12
- FPR binding: i
CCc1nc(-n2nnc3cc(C)c(C)cc32)c2c3c(sc2n1)CCCC3
- FPR binding: i
O=C(Nc1ccc(Cl)cc1C(F)(F)F)c1cc(S(=O)(=O)NCc2ccccc2)ccc1F
- FPR binding: i
COc1cccc2c1OC1(CCC(C)CC1)N1N=C(c3ccc(C)o3)CC21 (configuration not stated)
- FPR binding: 31
CCc1cccc(NC(=O)C2CCC(CNS(=O)(=O)c3cccs3)CC2)c1 (configuration not stated)
- FPR binding: i
CN1C(=O)NC(c2cccc([N+](=O)[O-])c2)C2=C1CC(C)(C)CC2=O (configuration not stated)
- FPR binding: i

Cc1cc(C2C(C#N)=C(N)N(c3ccccc3C(F)(F)F)C3=C2C(=O)CC(C)(C)C3)c(C)s1 (configuration not stated)
- FPR binding: i
CCOc1ccc(OCC)c(NC(=O)C(CC(C)C)NS(=O)(=O)c2ccc3c(c2)CCN3C(C)=O)c1 (configuration not stated)
- FPR binding: i
CCOC(=O)c1c(NC(=O)c2ccccc2)sc2c1CCCC2O (configuration not stated)
- FPR binding: 12
Cn1c2ccccc2c2c(C(=O)N3CCN(c4ccccn4)CC3)cn(C3CCCC3)c(=O)c21
- FPR binding: i
CCOc1ccc2c(c1)C(C)=CC(C)(C)N2C(=O)Nc1ccc(Cl)cc1
- FPR binding: i
COc1ccccc1-c1c(C(F)(F)F)oc2cc(OC(C)C(=O)OC(C)C)ccc2c1=O (configuration not stated)
- FPR binding: i
COc1ccc(N2CCN(C(=O)c3cn(C4CCCC4)c(=O)c4c3c3ccccc3n4C)CC2)cc1
- FPR binding: i
COc1ccc(C2C3=C(CC(C)(C)CC3=O)Nc3ncnn32)cc1 (configuration not stated)
- FPR binding: 11
CC1CCCN(C(C(=O)NC2CCCCC2)c2cc3c(cc2[N+](=O)[O-])OCO3)C1 (configuration not stated)
- FPR binding: i
COc1ccc(CCNC(=O)CCCCCn2c(SCC(N)=O)nc3cc4c(cc3c2=O)OCO4)cc1OC
- FPR binding: i

O=c1c(-c2cccc3ccccc23)c(C(F)(F)F)oc2cc(O)ccc12
- FPR binding: i
COC(=O)C1C(=O)C2=C(CC1C)NC(C)=C(C(=O)OC1CCCCC1)C2c1ccc(C)c([N+](=O)[O-])c1 (configuration not stated)
- FPR binding: i
CCOc1ccccc1C1C(C(=O)OCCOC(C)C)=C(C)NC2=C1C(=O)C(C(=O)OC)C(C)C2 (configuration not stated)
- FPR binding: i
CCOc1ccc(Oc2cc(NC(=O)c3cc4n(n3)C(C(F)(F)F)CC(c3cccs3)N4)cc([N+](=O)[O-])c2)cc1 (configuration not stated)
- FPR binding: i
COc1cc(OC)cc(C(=O)NC(C(=O)O)C23CC4CC(CC(C4)C2)C3)c1 (configuration not stated)
- FPR binding: 23
CC1(C)CC2CC(C)(CN2c2ccc(N3C(=O)C4C5C=CC(C5)C4C3=O)cc2[N+](=O)[O-])C1 (configuration not stated)
- FPR binding: i
O=C(CCN1C(=O)c2ccccc2C1=O)Oc1ccc2c3c(c(=O)oc2c1)CCC3
- FPR binding: 0
Cc1ccc(S(=O)(=O)Nc2cc(C(C)C)c(O)c(Br)c2C)cc1
- FPR binding: i
CCCc1cc2c(=O)c(-c3ccc4c(c3)OCO4)coc2cc1OC(C)=O
- FPR binding: 38
COC(=O)C(CC(C)C)NS(=O)(=O)c1cccc2nsnc12 (configuration not stated)
- FPR binding: i

CCC(C)OC(=O)C1=C(C)NC2=C(C(=O)C(C(=O)OC)C(C)C2)C1c1ccccc1F (configuration not stated)
- FPR binding: i
COc1cc(C2C3=C(CC(C)(C)CC3=O)OC3=C2C(=O)CC(C)(C)C3)ccc1OC(=O)c1ccc(C)cc1
- FPR binding: 6
COC(=O)Cc1[nH]nc2c1C(C1C=CCCC1)C(C#N)=C(N)O2 (configuration not stated)
- FPR binding: 4
O=C(O)C12CC3CC(C1)CC(C(=O)O)(C3)C2
- FPR binding: i
COc1ccc(/C=C2/CCCC3=C2OC(N)=C(C#N)C3c2ccc(OC)cc2OC)c(OC)c1 (configuration not stated)
- FPR binding: i
COC(=O)NC(Nc1sc2c(c1C#N)CCCC2)(C(=O)OC)C(F)(F)F (configuration not stated)
- FPR binding: i
CCCOC(=O)C1=C(C)NC2=C(C(=O)C(C(=O)OC)C(C)C2)C1c1cc(OC)c(O)c([N+](=O)[O-])c1 (configuration not stated)
- FPR binding: 3
CC1CCN(C(=O)CSc2nc3ccccc3c(=O)n2CC2CCC(C(=O)NCc3ccccc3Cl)CC2)CC1 (configuration not stated)
- FPR binding: 1
CCOC(=O)C1CCC(CN(Cc2ccccc2C)S(=O)(=O)c2ccc3c(c2)OCCO3)CC1 (configuration not stated)
- FPR binding: i
COc1cc(C2NC(=O)N(C)C(C)=C2C(=O)OC2CCCC2)cc(Br)c1O (configuration not stated)
- FPR binding: i

CCCCCCOC(=O)C1=C(C)NC(=O)NC1c1cc(OC)c(O)c(OC)c1 (configuration not stated)
- FPR binding: i
COC(=O)c1ccc([N+](=O)[O-])cc1N1C(=O)C2C3CCC(C3)C2C1=O (configuration not stated)
- FPR binding: i
Cc1ccc(S(=O)(=O)NCC2CCC(C(=O)NCc3cccnc3)CC2)cc1 (configuration not stated)
- FPR binding: i
Cc1ccc(NC(=O)C2CC=CCC2C(=O)O)cc1[N+](=O)[O-] (configuration not stated)
- FPR binding: i
CC(=O)OC1=NN=C(OC(C)=O)C12CC=C(C)CC2c1ccc(Br)cc1 (configuration not stated)
- FPR binding: 24
CC1=C(C(=O)OC2CCCC2)C(c2cccc([N+](=O)[O-])c2)NC(=O)N1 (configuration not stated)
- FPR binding: 36
CC1CCN(Cc2c(O)ccc3c(=O)c(Oc4ccc(C(C)(C)C)cc4)c(C(F)(F)F)oc23)CC1
- FPR binding: i
CCCc1cc2c(=O)c(-c3ccccn3)coc2cc1OC(C)=O
- FPR binding: 9
Cc1ccc(OCC(=O)Oc2ccc3c4c(c(=O)oc3c2)CCC4)c(Br)c1
- FPR binding: i
CCOC(=O)C(NC(=O)c1ccccc1)(Nc1sc(C)c(CC)c1C#N)C(F)(F)F (configuration not stated)
- FPR binding: i

Part of the list above in order of SMILES length, low to high:
O=C(O)C12CC3CC(C1)CC(C(=O)O)(C3)C2
- FPR binding: i
CCCc1cc2c(=O)c(-c3ccccn3)coc2cc1OC(C)=O
- FPR binding: 9
Cc1ccc(NC(=O)C2CC=CCC2C(=O)O)cc1[N+](=O)[O-] (configuration not stated)
- FPR binding: i
CCCCCCOC(=O)C1=C(C)NC(=O)NC1c1cc(OC)c(O)c(OC)c1 (configuration not stated)
- FPR binding: i
CC(=O)OC1=NN=C(OC(C)=O)C12CC=C(C)CC2c1ccc(Br)cc1 (configuration not stated)
- FPR binding: 24
COc1cc(C2NC(=O)N(C)C(C)=C2C(=O)OC2CCCC2)cc(Br)c1O (configuration not stated)
- FPR binding: i
COC(=O)c1ccc([N+](=O)[O-])cc1N1C(=O)C2C3CCC(C3)C2C1=O (configuration not stated)
- FPR binding: i
CCOC(=O)C1CCC(CN(Cc2ccccc2C)S(=O)(=O)c2ccc3c(c2)OCCO3)CC1 (configuration not stated)
- FPR binding: i
COc1ccc(/C=C2/CCCC3=C2OC(N)=C(C#N)C3c2ccc(OC)cc2OC)c(OC)c1 (configuration not stated)
- FPR binding: i
CC1CCN(Cc2c(O)ccc3c(=O)c(Oc4ccc(C(C)(C)C)cc4)c(C(F)(F)F)oc23)CC1
- FPR binding: i
COc1cc(C2C3=C(CC(C)(C)CC3=O)OC3=C2C(=O)CC(C)(C)C3)ccc1OC(=O)c1ccc(C)cc1
- FPR binding: 6
CCCOC(=O)C1=C(C)NC2=C(C(=O)C(C(=O)OC)C(C)C2)C1c1cc(OC)c(O)c([N+](=O)[O-])c1 (configuration not stated)
- FPR binding: 3

Other compounds
Cc1sc2ncn(CC(=O)Nc3ccc(Oc4ccccc4)cc3)c(=O)c2c1S(=O)(=O)N1CC(C)CC(C)C1 (configuration not stated)
- FPR binding: 1
COc1ccc2c(=O)cc(C(F)(F)F)oc2c1[N+](=O)[O-]
- FPR binding: i
O=C(CSc1nc2ccccc2c(=O)n1CC1CCC(C(=O)NCc2ccco2)CC1)NCc1ccco1 (configuration not stated)
- FPR binding: i
Cc1ccc(C)c(N2CCN(C(=O)C3CCC(CNS(=O)(=O)c4ccc(Br)s4)CC3)CC2)c1 (configuration not stated)
- FPR binding: i
CCCCNC(=O)CSc1nc2cc3c(cc2c(=O)n1CCCCCC(=O)NCc1ccc2c(c1)OCO2)OCO3
- FPR binding: i
CCOc1cc(C2C3=C(CC(C)(C)CC3=O)OC3=C2C(=O)CC(C)(C)C3)ccc1OC(=O)c1ccc(F)cc1
- FPR binding: 4
CCCCCn1c(SCC(=O)OCC)nc2cc(C(=O)NCc3ccco3)ccc2c1=O
- FPR binding: 5
CCSCCOC(=O)C1=C(C)NC2=C(C(=O)C(C(=O)OC)C(C)C2)C1c1ccc2c(c1)c1ccccc1n2CC (configuration not stated)
- FPR binding: 4
CC(=O)N1CCc2cc(S(=O)(=O)NC(C(=O)Nc3ccc(Br)cc3F)C(C)C)ccc21 (configuration not stated)
- FPR binding: i
NS(=O)(=O)c1ccc(CNC(=O)C23CC4CC(C2)CC(n2cncn2)(C4)C3)cc1
- FPR binding: i
